Compound activity as filed in PubChem.
Sa ugtP lethal – kills S. aureus RN4220 lacking UgtP; S. aureus RN4220 ugtP deletion, OD600 growth, 16 h; some inactives read as strong as hits; growth inhibition, % (test concentration not listed); actives 0.54% (n = 330,000); AID 1259309;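 active = z-score under -3 and OD600 up to 0.15 on both plates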;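 also: plate controls were untreated wells for no effect and antibiotic for full effect; wells of about 80 µL received 100 nL stock; the first replicate is given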
RN4220 kill – kills Staphylococcus aureus RN4220; AID 1259311; actives 0.33% (n = 330,000); S. aureus RN4220 growth, OD600, 16 h; inhibition, % (test concentration not listed);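 active = z-score of -3 or lower and OD600 up to 0.18 on both plates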;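 also: plate controls were untreated cells for no effect and reference antibiotic for full effect; stock transfer was 100 nL into about 80 µL; one replicate is shown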
BJeLR viability – BJeLR cell viability loss; BJeLR (HRASV12) viability, CellTiter-Glo ATP luminescence, 48 h; reference of the scale not given here; inhibition, % (concentration not given with the values); actives 0.17% (n = 300,000); AID 1554;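 active = replicate mean above 50%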;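 also: 50 nL library stock added to about 25 µL; numbers are from one replicate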
Mtb hypoxia inh – inhibitors of hypoxia-regulated fluorescent reporter in Mycobacterium tuberculosis; actives 0.1% (n = 300,000); M. tuberculosis hypoxia-regulated fluorescent reporter, fluorescence; fluorescence inhibition, % (concentration not given with the values);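 active = 35 to 45% if threefold the growth effect, above 45% if 1.5-fold the growth effect; inactive = the rest, general growth blockers included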;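 also: wells of about 50 µL received 100 nL stock; 0% = vehicle wells and 100% = reference inhibitor wells; whole bacteria with a GFP reporter of the hypoxia response; strong numbers were not always called active; many hits fall short of the cut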
PrP 5UTR inh – suppresses PrP 5' UTR mRNA reporter expression | cell-based PrP 5' UTR mRNA reporter, plate reader | inhibition, % (no concentration beside the values) | actives 0.35% (n = 340,000);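 active = every replicate at 50% or more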;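 also: 0 = median of the neutral control wells; tested in H4 reporter cells; numbers are from one replicate; inactives centre near -14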
Bead autofluor – compound fluorescence in toxin protease inhibitor counterscreen. compound autofluorescence counterscreen, microsphere flow cytometry; hits give high values. fluorescence intensity (no concentration beside the values). actives 3.1% (n = 360,000). AID 624483;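 active = at least 3 SD above the mean of all compounds, about 16000 in these data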;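 also: 100 nL of 1 mM stock went into each well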
Mtb hypoxia inh growth – also measured in Mtb hypoxia inh; calls as there; growth inhibition, %; measured here: M. tuberculosis growth (absorbance);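 0% = vehicle and 100% = reference antibiotic; read after six days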
The depositor's hits bear a star.

CC1=NN(C(C#N)c2ccc(F)cc2)C(C)(C)C1 (stereo not drawn) was read as Sa ugtP lethal 4, RN4220 kill 1.6, BJeLR viability 8, Mtb hypoxia inh -4, PrP 5UTR inh -7, Bead autofluor 4315 and Mtb hypoxia inh growth 4.
Screening S=c1[nH]cnc2scc(-c3ccccc3)c12 returned Sa ugtP lethal 75, RN4220 kill -7.1, BJeLR viability 2, Mtb hypoxia inh 14, PrP 5UTR inh 7, Bead autofluor 2690 and Mtb hypoxia inh growth 5.
For O=C(N/C(=C\c1ccc([N+](=O)[O-])cc1)C(=O)N1CCCCC1)c1ccc(Br)o1 the results were Sa ugtP lethal 5, RN4220 kill 3.2, BJeLR viability -5, Mtb hypoxia inh 6, PrP 5UTR inh -8, Bead autofluor 5689 and Mtb hypoxia inh growth -2.
COc1ccccc1OCCCC(=O)Nc1nccs1 was read as Sa ugtP lethal -2, RN4220 kill 3.1, BJeLR viability 17, Mtb hypoxia inh -4, PrP 5UTR inh -61, Bead autofluor 4599 and Mtb hypoxia inh growth 5.
`Cc1[nH]nc2c1C(c1cccs1)C1=C(CC(C)(C)CC1=O)N2` (stereo not drawn) gave BJeLR viability 1, PrP 5UTR inh -12 and Bead autofluor 4263.
For COc1cc(-c2nc3ccc(N4CCN(C)CC4)cc3[nH]2)cc(OC)c1OC the results were Sa ugtP lethal 6, RN4220 kill 5.2, BJeLR viability -2, Mtb hypoxia inh 14, PrP 5UTR inh -15, Bead autofluor 3215 and Mtb hypoxia inh growth 15.
Screening COc1cc2c(cc1OC)CN(C(=O)/C=C/c1cccs1)CC2 returned Sa ugtP lethal 12, RN4220 kill 19, BJeLR viability 7, Mtb hypoxia inh 1, PrP 5UTR inh -35, Bead autofluor 4717 and Mtb hypoxia inh growth 6.
CC(=O)Nc1ccc(/C=N/NC(=O)c2cc(-c3ccco3)nc3ccccc23)cc1 was read as BJeLR viability -4, PrP 5UTR inh -2 and Bead autofluor 5761.
COc1ccc(S(=O)(=O)N(C)CC(=O)NC2CCCCC2)cc1Cl was read as Sa ugtP lethal 8, RN4220 kill 4.9, BJeLR viability 13, Mtb hypoxia inh 17, PrP 5UTR inh -6, Bead autofluor 7949 and Mtb hypoxia inh growth 7.
Screening CCOc1ncccc1C(=O)Nc1ccc(-c2ccc3nnc(C)n3n2)cc1 returned Sa ugtP lethal 2, RN4220 kill 2.1, BJeLR viability -2, Mtb hypoxia inh 6, PrP 5UTR inh -13, Bead autofluor 3779 and Mtb hypoxia inh growth 4.
For COc1ccc(/C=C/C(=O)OCC(=O)N2CCCC2)c(OC)c1 the results were Sa ugtP lethal 5, RN4220 kill 3.7, Mtb hypoxia inh 13, PrP 5UTR inh -26, Bead autofluor 3861 and Mtb hypoxia inh growth 5.
For CCn1c(SCC(=O)Nc2ccc(F)cc2)nnc1-c1cnccn1 the results were Sa ugtP lethal 9, RN4220 kill 2.8, BJeLR viability 3, Mtb hypoxia inh 5, PrP 5UTR inh -19, Bead autofluor 4710 and Mtb hypoxia inh growth 1.
For Cc1ccc(CN2C(=O)CSC2c2ccccc2F)cc1 (stereo not drawn) the results were Sa ugtP lethal 14, RN4220 kill 7.2, BJeLR viability -1, Mtb hypoxia inh 1, PrP 5UTR inh -28, Bead autofluor 3018 and Mtb hypoxia inh growth -7.
`CS(=O)(=O)NNC(=O)c1csc(Cc2c(Cl)sc3ccc(Cl)cc23)n1` gave Sa ugtP lethal 1, RN4220 kill 3.8, BJeLR viability 0, Mtb hypoxia inh 10, PrP 5UTR inh -13, Bead autofluor 4316 and Mtb hypoxia inh growth -5.
Screening COc1cc2c(cc1OC)C(C(=O)NCCN1CCOCC1)C1c3ccccc3CCN1C2=O (stereo not drawn) returned Sa ugtP lethal 5, RN4220 kill 1.2, BJeLR viability -5, PrP 5UTR inh -20 and Bead autofluor 5422.
`O=c1cc(CN2CCCCCC2)nc2sccn12` gave BJeLR viability 3, PrP 5UTR inh -6 and Bead autofluor 2712.
For Cc1ccc(-c2cc(-c3cccs3)[nH]n2)c(O)c1 the results were Sa ugtP lethal -14, RN4220 kill -7.1, BJeLR viability -2, PrP 5UTR inh -84 and Bead autofluor 2473.
O=C(NCc1ccccc1F)c1ccc2ccccc2n1 was read as Sa ugtP lethal -10, RN4220 kill 8.0, BJeLR viability 12, Mtb hypoxia inh 23, PrP 5UTR inh -24, Bead autofluor 5718 and Mtb hypoxia inh growth 9.
`CC(NC(=O)CSc1nnc2n1CCCCC2)c1ccccc1Cl` (stereo not drawn) gave Sa ugtP lethal 2, RN4220 kill 3.1, Mtb hypoxia inh 20, PrP 5UTR inh -17, Bead autofluor 3600 and Mtb hypoxia inh growth 6.
For O=C(CCCn1c(SCC(=O)Nc2ccccc2C(F)(F)F)nc2ccccc2c1=O)NCC1CCCO1 (stereo not drawn) the results were Sa ugtP lethal -6, RN4220 kill -1.9, BJeLR viability -2, Mtb hypoxia inh -7, PrP 5UTR inh -7, Bead autofluor 5334 and Mtb hypoxia inh growth -1.
Screening CC(Oc1ccc(C(C)(C)C)cc1)C(=O)NC1CC(C)(C)NC(C)(C)C1 (stereo not drawn) returned Sa ugtP lethal 12, RN4220 kill 3.8, BJeLR viability 1, Mtb hypoxia inh 8, PrP 5UTR inh -10, Bead autofluor 4105 and Mtb hypoxia inh growth 7.
`O=C(O)/C=C/c1ccc(S(=O)(=O)N(CCO)CCO)cc1` gave Sa ugtP lethal 6, RN4220 kill 3.9, BJeLR viability -6, Mtb hypoxia inh 11, PrP 5UTR inh -21, Bead autofluor 4557 and Mtb hypoxia inh growth 1.
`CCOC(=O)c1c(C)[nH]c(C(=O)CN2C(=O)C(=O)N(CC(C)C)C2=O)c1C` gave Sa ugtP lethal 5, RN4220 kill 3.2, BJeLR viability -7, Mtb hypoxia inh 1, PrP 5UTR inh -18, Bead autofluor 3876 and Mtb hypoxia inh growth 2.
For CCN(CC)CCCNC(=S)N1CCn2c(nc3ccccc32)C1 the results were Sa ugtP lethal 7, RN4220 kill 1.3, BJeLR viability -1, Mtb hypoxia inh 8, PrP 5UTR inh -25, Bead autofluor 9808 and Mtb hypoxia inh growth 7.
Screening O=C(OCC1CC(c2ccccc2Cl)=NO1)c1ccc(Br)cc1 (stereo not drawn) returned Sa ugtP lethal 6, RN4220 kill 5.5, BJeLR viability 10, Mtb hypoxia inh -1, PrP 5UTR inh -9, Bead autofluor 2485 and Mtb hypoxia inh growth -4.
CCOc1ccc2nc(NC(=O)C3CSC4(C)CCC(=O)N34)sc2c1 (stereo not drawn) was read as Sa ugtP lethal 1, RN4220 kill 1.4, Mtb hypoxia inh 4, PrP 5UTR inh 4, Bead autofluor 5591 and Mtb hypoxia inh growth 13.
`Cc1ccnc(N/C=C(/NC(=O)c2ccccc2)C(=O)NN=Cc2ccc(Cl)cc2)n1` gave Sa ugtP lethal -6, RN4220 kill 6.7, Mtb hypoxia inh 7 and Mtb hypoxia inh growth 6.
Screening c1ccc2c(c1)CCCN2c1nc(N2CCOCC2)nc(N2CCOCC2)n1 returned Sa ugtP lethal 15, RN4220 kill 3.2, BJeLR viability -6, Mtb hypoxia inh 0, PrP 5UTR inh -6, Bead autofluor 5785 and Mtb hypoxia inh growth 21.
Cc1ccnc(Nc2nc(-c3ccc(Cl)cc3)cs2)c1 was read as BJeLR viability -4, PrP 5UTR inh -60 and Bead autofluor 3802.
For O=C(CCl)N1CCN(S(=O)(=O)c2ccc3c(c2)CCC3)CC1 the results were Sa ugtP lethal 8, RN4220 kill 6.7, Mtb hypoxia inh 22, PrP 5UTR inh -10, Bead autofluor 3708 and Mtb hypoxia inh growth 20.
Screening O=C(Nc1ccc(CN2CCOCC2)cc1)c1cccc(F)c1 returned Sa ugtP lethal 0, RN4220 kill 3.6, Mtb hypoxia inh 8, PrP 5UTR inh -122, Bead autofluor 18588* and Mtb hypoxia inh growth 7.
`CC1CN(C(=O)CSc2nnc(-c3ccncc3)n2-c2ccccc2)CC(C)O1` (stereo not drawn) gave Sa ugtP lethal 12, RN4220 kill 3.9, BJeLR viability 1, Mtb hypoxia inh 8, PrP 5UTR inh -21, Bead autofluor 6386 and Mtb hypoxia inh growth 3.
For CC(=O)N1CCc2cc(S(=O)(=O)NC3CCCc4ccccc43)ccc21 (stereo not drawn) the results were Sa ugtP lethal 4, RN4220 kill 11, PrP 5UTR inh -17 and Bead autofluor 3609.
`CCC(C)NC(=O)c1cc(-c2cccs2)nc2ccccc12` (stereo not drawn) gave Sa ugtP lethal 9, RN4220 kill 3.8, BJeLR viability -11, Mtb hypoxia inh -1, PrP 5UTR inh -13, Bead autofluor 2963 and Mtb hypoxia inh growth 6.
For COc1ccc(C2=Nn3c([n+](C)c4ccccc43)SC2)cc1 the results were Sa ugtP lethal 73, RN4220 kill 20, BJeLR viability 6, Mtb hypoxia inh -2, PrP 5UTR inh 16, Bead autofluor 4250 and Mtb hypoxia inh growth 4.
Screening CCOC(=O)Cc1nn(CC)c(=O)c2ccccc12 returned Sa ugtP lethal 6, RN4220 kill 2.1, BJeLR viability 6, Mtb hypoxia inh 4, PrP 5UTR inh -11, Bead autofluor 4253 and Mtb hypoxia inh growth 12.
`CCOC(=O)CN1C(=O)/C(=C/c2c(F)cccc2Cl)Oc2ccccc21` gave Sa ugtP lethal 56, RN4220 kill -2.5, BJeLR viability -2, Mtb hypoxia inh 7, PrP 5UTR inh 3, Bead autofluor 3934 and Mtb hypoxia inh growth 3.
O=C1c2ccccc2C(=O)N1c1ccc(Cl)cn1 was read as Sa ugtP lethal 4, RN4220 kill -7.5, BJeLR viability -6, Mtb hypoxia inh -4, PrP 5UTR inh -28, Bead autofluor 4044 and Mtb hypoxia inh growth 1.
For CC(C)c1ccc(OC(=O)NCCO)cc1 the results were Sa ugtP lethal -1, RN4220 kill 5.2, BJeLR viability 1, PrP 5UTR inh -22 and Bead autofluor 4522.
Screening CC(=O)NC1C(=O)N=C(SCC(=O)Nc2ccc(C(F)(F)F)cc2Cl)NC1=O (stereo not drawn) returned Sa ugtP lethal 12, RN4220 kill -0.5, BJeLR viability 9, Mtb hypoxia inh 3, PrP 5UTR inh -22, Bead autofluor 4167 and Mtb hypoxia inh growth 7.
COCCCNCCOCCOc1ccc(Cl)cc1C(C)(C)C was read as Sa ugtP lethal -5, RN4220 kill -9.0, BJeLR viability 1, Mtb hypoxia inh 18, PrP 5UTR inh 3, Bead autofluor 2144 and Mtb hypoxia inh growth 15.
For C/C(=N\O)c1ccc2c(c1)OCCO2 the results were BJeLR viability -2, PrP 5UTR inh -7 and Bead autofluor 3188.
`COCCNC(=O)COC(=O)c1ccc(OCC(=O)Nc2ccccc2OC)c(OC)c1` gave Sa ugtP lethal 0, RN4220 kill 5.8, BJeLR viability 5, Mtb hypoxia inh 1, PrP 5UTR inh -25, Bead autofluor 3260 and Mtb hypoxia inh growth -4.
For Cc1cc(=O)oc(C)c1C(=O)OCC(=O)c1ccc(Cl)c(Cl)c1 the results were Sa ugtP lethal 2, RN4220 kill 11, BJeLR viability -3, Mtb hypoxia inh -1, PrP 5UTR inh -35, Bead autofluor 7165 and Mtb hypoxia inh growth 12.

At a glance, some entries already given.
`CCOC(=O)CN1C(=O)/C(=C/c2c(F)cccc2Cl)Oc2ccccc21` gave Sa ugtP lethal 56, RN4220 kill -2.5, BJeLR viability -2, Mtb hypoxia inh 7, PrP 5UTR inh 3, Bead autofluor 3934 and Mtb hypoxia inh growth 3.
O=C1c2ccccc2C(=O)N1c1ccc(Cl)cn1 was read as Sa ugtP lethal 4, RN4220 kill -7.5, BJeLR viability -6, Mtb hypoxia inh -4, PrP 5UTR inh -28, Bead autofluor 4044 and Mtb hypoxia inh growth 1.
For CC(C)c1ccc(OC(=O)NCCO)cc1 the results were Sa ugtP lethal -1, RN4220 kill 5.2, BJeLR viability 1, PrP 5UTR inh -22 and Bead autofluor 4522.
Screening CC(=O)NC1C(=O)N=C(SCC(=O)Nc2ccc(C(F)(F)F)cc2Cl)NC1=O (stereo not drawn) returned Sa ugtP lethal 12, RN4220 kill -0.5, BJeLR viability 9, Mtb hypoxia inh 3, PrP 5UTR inh -22, Bead autofluor 4167 and Mtb hypoxia inh growth 7.
COCCCNCCOCCOc1ccc(Cl)cc1C(C)(C)C was read as Sa ugtP lethal -5, RN4220 kill -9.0, BJeLR viability 1, Mtb hypoxia inh 18, PrP 5UTR inh 3, Bead autofluor 2144 and Mtb hypoxia inh growth 15.
